GIV Gai3 FP = blocks GIV peptide binding to rat Galpha-i3; P08753; Galpha-i3/FITC-GIV peptide fluorescence polarization, 90 min; active compounds read low; scaled: aluminum fluoride 0%, vehicle 100%; percent of control (FP), % (concentration not given with the values); 210,000 compounds, 0.42% hits; AID 1224905;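 active = replicate mean at 85% of control or lower, very high polarization wells dropped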;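 note: wells of about 15 µL received 100 nL stock; the first replicate is given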
Target sequence (P08753 whole entry, looked up): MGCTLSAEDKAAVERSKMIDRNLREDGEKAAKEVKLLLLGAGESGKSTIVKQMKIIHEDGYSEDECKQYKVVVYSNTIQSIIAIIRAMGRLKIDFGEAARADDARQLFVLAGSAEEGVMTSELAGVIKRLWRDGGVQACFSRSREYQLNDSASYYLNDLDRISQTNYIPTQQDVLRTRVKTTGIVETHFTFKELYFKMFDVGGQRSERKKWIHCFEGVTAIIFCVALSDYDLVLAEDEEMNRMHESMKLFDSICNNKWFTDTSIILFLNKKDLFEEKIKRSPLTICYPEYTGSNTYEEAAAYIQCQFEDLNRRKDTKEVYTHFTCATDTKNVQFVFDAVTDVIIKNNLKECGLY
An asterisk follows results filed as active. This is a subset, so the mix of outcomes need not match the whole.

GIV Gai3 FP | SMILES
115 | CC(=O)c1c(C)oc2ccc(N(C(C)=O)S(=O)(=O)c3ccc(Br)cc3)cc12
100 | C=CCn1c(SCc2nc3ccccc3[nH]2)nc2sc(CC)cc2c1=O
107 | Cc1c(NC(=O)OCCOc2nc(N(C)C)nc(N(C)C)n2)sc(=S)n1C
105 | O=C(CCn1c(=S)oc2ccccc21)Nc1cccc(-c2nc3ncccc3o2)c1
107 | Cc1cc(C(F)(F)F)c(C#N)c(SCC(=O)Nc2cccc(C(F)(F)F)c2)n1
97 | COc1ccc(COC(=O)C2=C(C)NC3=C(C(=O)CCC3)C2c2ccc(OC)c(OC)c2OC)cc1 (configuration not stated)
104 | CCc1nc(OCC(=O)NC2CCS(=O)(=O)C2)c2c(-c3ccc(F)cc3)noc2n1 (configuration not stated)
111 | Fc1cccc(F)c1-c1noc(-c2cc(-c3ccncc3)nc3ccccc23)n1
116 | Cc1cc(=O)oc2c1ccc1oc(C(=O)c3ccccc3)c(-c3ccccc3)c12
100 | CCN(CC)S(=O)(=O)c1c(C)nc2sc(C)nn12
101 | CC(C)Oc1ccc(NC(=O)C2CCCN(S(=O)(=O)Cc3ccc(F)cc3)C2)cc1 (configuration not stated)
97 | CS(=O)(=O)N1CSC[C@@H]1C(=O)NCCc1csc(-c2ccccc2)n1
104 | CC1(c2ccccc2)COC2(OC1)C(=O)N(CN1CCOCC1)c1ccccc12 (configuration not stated)
113 | C=CCNC(=S)Nc1ccc(-c2nnc3n2CCCCC3)cc1
105 | Cc1nn(-c2nc3ccccc3[nH]2)c2c1C(c1cccc(Cl)c1)CC(=O)N2 (configuration not stated)
103 | Cc1ccc(C)c(-c2nc(-c3cccc(-c4ccn[nH]4)c3)no2)c1
111 | O=C(c1ccccc1F)N1CCN(Cc2cc(=O)n3nc(-c4ccccc4)sc3n2)CC1
-52* | C=CCNc1ccc2c3c1cccc3c(=O)n1c3ccccc3nc21
136 | Cc1csc(-c2cc(S(=O)(=O)NC3CCCCC3)c(C)s2)n1
104 | CCn1cc2c(n1)-c1c(oc(C(=O)NC3CC3)c1C)CC2
108 | Fc1ccc(-c2nc(-c3ccccc3)c(-c3ccc(Sc4ccccc4)cc3)[nH]2)cc1
107 | CN(C)CCNc1c2c(c(C#N)c3nc4ccccc4n13)CCC2
108 | CC(C)CCn1nc2c(S(=O)(=O)N3CCN(c4ccc(F)cc4)CC3)cccn2c1=O
102 | CCCN(C)S(=O)(=O)c1cc(-c2nnc(C(C)C)o2)co1
108 | COc1cccc(C2C(C(=O)OCC3CCCO3)=C(C)NC3=C2C(=O)CC(c2cccs2)C3)c1OC (configuration not stated)
103 | O=c1n(Cc2ccccc2F)nc2c(S(=O)(=O)N3CCCCC3)cccn12
101 | COc1ccc(Cl)cc1-c1nc(-c2ccc(NC(=O)c3ccco3)cc2)no1
112 | Cc1c(NC(=O)/C(C#N)=C/c2ccc(N(C)C)cc2)c(=O)n(-c2ccccc2)n1C
102 | CCOC(=O)c1ccc(Nc2ccc(Br)cc2-c2nc3nc(-c4cc(C(C)(C)C)cc5c4CCC5(C)C)cn3[nH]c2=O)o1
106 | Cc1ccc(-n2ccc(=O)c(-c3nc(-c4ccccn4)no3)n2)cc1
101 | CCOC(=O)N1CCC(Nc2nc(N3CCOCC3)nc(N3CCN(c4ccc(OC)cc4)CC3)n2)CC1
100 | O=S(=O)(c1ccccc1)N1CCC2(CC1)NCCN=C2NCc1cc(F)cc(F)c1
97 | Cc1cn2c(S(=O)(=O)NC3CCCCC3)c(C(C)C)nc2s1
103 | Cc1cc(C)c2c(c1)[C@H]1OCC[C@H]1C(c1ccc(O)c(Br)c1)N2 (some centres not stated)
103 | COCCNC(=O)c1cc(S(=O)(=O)N2CC(C)CC(C)C2)ccc1Sc1ccc(Br)cc1 (configuration not stated)
111 | COc1ccc(C(=O)Oc2ccc(C(c3c(C)[nH]n(-c4ccccc4)c3=O)c3c(C)[nH]n(-c4ccccc4)c3=O)cc2)cc1
116 | CC(C)N1CC2=C(OC(N)=C(C#N)C2c2ccc(F)cc2)/C(=C/c2ccc(F)cc2)C1 (configuration not stated)
109 | CN(CCc1noc(-c2ccc(C(=O)N3CCOCC3)cc2)n1)C(=O)CC1CCCC1
117 | O=S1(=O)N=C(N(CCOc2ccccc2)CCOc2ccccc2)c2ccccc21
113 | N#CC1=C(N)n2c(s/c(=C\c3ccccc3I)c2=O)=C(C#N)C1c1ccccc1I (configuration not stated)

The last 7 compounds of the section above come first, to join the parts.
GIV Gai3 FP | SMILES
103 | Cc1cc(C)c2c(c1)[C@H]1OCC[C@H]1C(c1ccc(O)c(Br)c1)N2 (some centres not stated)
103 | COCCNC(=O)c1cc(S(=O)(=O)N2CC(C)CC(C)C2)ccc1Sc1ccc(Br)cc1 (configuration not stated)
111 | COc1ccc(C(=O)Oc2ccc(C(c3c(C)[nH]n(-c4ccccc4)c3=O)c3c(C)[nH]n(-c4ccccc4)c3=O)cc2)cc1
116 | CC(C)N1CC2=C(OC(N)=C(C#N)C2c2ccc(F)cc2)/C(=C/c2ccc(F)cc2)C1 (configuration not stated)
109 | CN(CCc1noc(-c2ccc(C(=O)N3CCOCC3)cc2)n1)C(=O)CC1CCCC1
117 | O=S1(=O)N=C(N(CCOc2ccccc2)CCOc2ccccc2)c2ccccc21
113 | N#CC1=C(N)n2c(s/c(=C\c3ccccc3I)c2=O)=C(C#N)C1c1ccccc1I (configuration not stated)
104 | COc1ccc(C2C=C(c3ccccc3)Nc3nc(C(F)(F)F)nn32)cc1 (configuration not stated)
103 | CCOc1ccc(NC(=O)NCCc2nc(-c3ccccc3)n[nH]2)cc1
109 | CCOC(=O)C1=C(C)N=c2s/c(=C/c3ccc(N4CCOCC4)o3)c(=O)n2C1c1ccc(SC)cc1 (configuration not stated)
103 | CC(C)c1ccc(S(=O)(=O)N2CCCC2c2cc(C(C)C)no2)cc1 (configuration not stated)
108 | CC(=O)Nc1ccc(-c2noc(C3CCCN(C(=O)c4ccc(C)c(F)c4)C3)n2)cc1 (configuration not stated)
103 | COc1ccccc1Oc1cc(-c2cccc(C(=O)NCc3ccc(Br)cc3)c2)ncn1
103 | Cc1ccc(N2CCN(S(=O)(=O)c3ccc(-c4nnc(C5CC5)o4)o3)CC2)cc1
106 | CCOC(=O)C1CCN(C(=O)CSc2nccc3c2ccn3Cc2ccc(OC)cc2)CC1
98 | Cc1[nH]nc(-c2c(C)sc(C)c2S(=O)(=O)Nc2ccc(F)c(Cl)c2)c1C
104 | CC1(C)CC(=O)c2c(n(S(=O)(=O)c3ccc(C(C)(C)C)cc3)c3ccc(NS(=O)(=O)c4ccc(C(C)(C)C)cc4)cc23)C1
95 | Cc1nn(-c2nc3ccccc3[nH]2)c2c1C(c1cccc(F)c1F)CC(=O)N2 (configuration not stated)
99 | COc1ccc(-n2nnnc2C2(Nc3ccc(OC)c(OC)c3)CCCC2)cc1
101 | COc1ccc(NC(=O)c2sc3nc(C)nc(N4CCN(c5ccccn5)CC4)c3c2C)c(OC)c1
102 | CCCc1cc(C2CCCN2C(=O)Nc2cccc(Cl)c2)no1 (configuration not stated)
110 | CCCS(=O)(=O)c1c(S(=O)(=O)CCC)c2ccccn2c1C(=O)N/N=C/c1ccc(OC)cc1
116 | CCOc1ccc(C2(O)CN(c3ccc(OC)cc3)C3=[N+]2CCCC3)cc1 (configuration not stated)
104 | CN(C)c1ccc(C2C=C(Nc3ccccc3)C(=O)N2c2ccccc2)cc1 (configuration not stated)
105 | Cc1noc(C)c1C1CCCN1C(=O)NC1CCCCC1 (configuration not stated)
106 | c1cc(-c2nc(-c3ccc4nncn4c3)no2)co1
109 | O=C(COc1ccc(Cl)cc1Cl)NN1C(=O)C2C(C1=O)C1C=CC2C12CC2 (configuration not stated)
106 | CSc1c(C(C)C)cnc2c1c(=O)n(C)c(=O)n2C
103 | Cc1c(C(=O)N2CCN(c3ccc([N+](=O)[O-])cc3)CC2)sc2ncnc(N3CCCCC3)c12
101 | CC(C)CCNC(=O)C1(c2ccc(NS(=O)(=O)c3ccc(CC(C)C)cc3)cc2)CC1
124 | CCOc1cccc2c1NC(C)(C)C1=C2C2(SC(C(=O)OC)=C(C(=O)OC)S2)C(C(=O)OC)=C(C(=O)OC)S1
97 | COC(=O)c1ccc2c(=O)n(Cc3ccc(OC)cc3)c(N3CCSC3)nc2c1
105 | Cc1ccccc1-c1cc2n(C)c(C)c(CCC(=O)N3CCN(c4ccccc4)CC3)c(=O)n2n1
98 | COCCNC(=O)c1ccc2c(=O)n(Cc3ccc4c(c3)OCO4)c(SCC(=O)NC3CCCC3)nc2c1
95 | CCOC(=O)C1CCN(C(=O)c2ccc(-c3nc4ccccc4n(CC(C)C)c3=O)cc2)CC1
97 | COc1ccc2nc(NC(=O)CN3C(=O)C(C(=O)N4CCCC4)Sc4ccccc43)sc2c1 (configuration not stated)
107 | CC(=O)Nc1cccc(NC(=O)c2sc3ncn(CC(=O)Nc4ccc(C)c(Cl)c4)c(=O)c3c2C)c1
115 | CC(Br)C(=O)Nc1ccc2nc(SCC(=O)N3CCc4ccccc43)sc2c1 (configuration not stated)
113 | CC12COC3(C(=O)NCCc4ccccc4)CC1CCC32C (configuration not stated)
102 | Cc1ccccc1-c1noc(-c2nn(-c3ccc(Cl)cc3)ccc2=O)n1
103 | O=C(Nc1ccc(F)cc1)c1ccccn1
106 | COc1ccccc1[C@@H]1[C@@H](C(=O)c2ccccc2)N2c3ccccc3C=C[C@@H]2C1(C#N)C#N
107 | CC1=CC2=NC(=O)CC(C)(C(=O)O)N2C=C1 (configuration not stated)
107 | COc1ccc(S(=O)(=O)Nc2cccc(-c3nnc(-c4ccccc4)o3)c2)cc1Cl
107 | Cc1[nH]nc2c1C(c1cc([N+](=O)[O-])ccc1OCc1ccc(Br)cc1)C(C#N)=C(N)O2 (configuration not stated)
106 | CC1(C)CN(C(=O)C2CC2)c2ccc(S(=O)(=O)NCC3CCCO3)cc21 (configuration not stated)
105 | Cc1cccc(C2=Nc3ccccc3N=C(c3ccc(C)cc3O)C2)c1
108 | O=S(=O)(c1ccc2c(c1)OCCO2)N1CCCn2nc(-c3cccs3)cc2C1
105 | CCOC(=O)C(NC(=O)c1ccc(OC)cc1)(Nc1nc2ccccc2nc1C(F)(F)F)C(F)(F)F (configuration not stated)
113 | CC/C(O)=C(/C#N)c1nnc2n1CCCCC2
104 | CC(C)Oc1ccc(CN2CCCC2c2cc(C(C)C)on2)cc1 (configuration not stated)
103 | CCCCNC(=O)c1cc(S(=O)(=O)N2CCOCC2)ccc1Sc1ccc(Br)cc1
102 | Cc1cc(Cl)ccc1S(=O)(=O)n1nnc2ccccc21
94 | Cc1csc(NC(=O)CSc2nc(C(C)C)nc3c2c(=O)n(C)c(=O)n3C)n1
100 | Cc1ccccc1NC(=O)c1ccc(-n2nc(N3CCCC3)ccc2=O)cc1
106 | COc1ccc(C(=O)N(Cc2cccnc2)c2nc3ccc(Cl)cc3s2)c(OC)c1
105 | Cc1c(C(=O)N2CCN(c3ccccn3)CC2)sc2ncnc(N3CCN(c4ccccc4)CC3)c12
101 | COC(=O)Cc1nc(Nc2ccc(C)c(F)c2)c2c(C)c(C)sc2n1
100 | CC(C)NC(=O)N1CCCN(S(C)(=O)=O)CC1
105 | CC(C)(C)c1ccc(C(=O)Nc2cc(F)c3nc(N4CCCC4)ccc3c2)cc1
106 | CCc1ccc(NC(=O)CSc2nnc(-c3nc(-c4ccc(OC)cc4)no3)n2CC)cc1
98 | CCCS(=O)(=O)c1nc2ccc(NS(=O)(=O)Cc3cc(C)ccc3C)cc2s1
106 | O=C(COc1ccccc1)Nc1cccc(OCc2cc(=O)n3cc(Cl)ccc3n2)c1
104 | CCOC(=O)c1[nH]c(C)c(CN(C(=O)NC(C)CC)C2CCCCC2)c1C (configuration not stated)
96 | COc1ccc(NC(=O)c2ccc3c(c2)N(C)C(=O)c2ccccc2O3)cc1OC
113 | Cc1ccc(-c2csc(C(C#N)=C3CCC(C)CC3)n2)cc1 (configuration not stated)
101 | CCn1ncc(NC(=O)Cc2ccc(C)cc2)c(N2CCCCC2)c1=O

Additional records
GIV Gai3 FP | SMILES
104 | O=C(NCC1CC1)C1CCN(c2ncccc2-c2nc(-c3ccccc3)no2)CC1
110 | COc1ccc(-c2cc(C(F)(F)F)n3nc(C(=O)Nc4cc5c(cc4[N+](=O)[O-])OCCO5)cc3n2)cc1
102 | CC1CC(C)(C)N(C(=O)Nc2ccccc2)c2ccccc21 (configuration not stated)
101 | CC(C)C(=O)N1CCN(c2nc3ccccc3n2C)CC1
100 | Cc1nc(CCNC(=O)[C@H]2CSCN2S(=O)(=O)c2ccc3c(c2)oc(=O)n3C)cs1
114 | COC(=O)Nc1ccc(S(=O)(=O)N2CCCC(C(=O)NC3CCCCC3)C2)cc1 (configuration not stated)
112 | COCCCNc1nc(-c2ccc(C(C)(C)C)cc2)nc2ccccc12
95 | CC1=NS(=O)(=O)c2cccnc2N1c1ccc(F)cc1
101 | O=C(c1noc2ccc(S(=O)(=O)N3CCOCC3)cc12)N1CCCC1
112 | COc1ccccc1CN1CCCC1c1c(C)noc1C (configuration not stated)
109 | S=C1NC(c2ccc(Br)cc2)=CC(c2ccccc2Cl)N1 (configuration not stated)
104 | O=C1CC(c2ccccc2)CC2=C1C(c1ccc(O)cc1)Nc1ccc3ccccc3c12 (configuration not stated)
106 | Cc1ccc(C)c(CNS(=O)(=O)c2cc(-c3nc(C(C)(C)C)cs3)cs2)c1
107 | CN1CCN(S(=O)(=O)c2ccc3c(c2)n(C)c(=O)c(=O)n3C)c2ccccc21
104 | COc1cc(C2Nc3ccccc3NC3=C2C(=O)CC(C)(C)C3)ccc1OCc1ccccc1 (configuration not stated)

Sorted by the number under GIV Gai3 FP (ascending): 4 from the list above.
mol | GIV Gai3 FP
CC1=NS(=O)(=O)c2cccnc2N1c1ccc(F)cc1 | 95
O=C(c1noc2ccc(S(=O)(=O)N3CCOCC3)cc12)N1CCCC1 | 101
O=C(NCC1CC1)C1CCN(c2ncccc2-c2nc(-c3ccccc3)no2)CC1 | 104
S=C1NC(c2ccc(Br)cc2)=CC(c2ccccc2Cl)N1 (configuration not stated) | 109

2 entries from above in another layout.
SMILES: O=C(c1noc2ccc(S(=O)(=O)N3CCOCC3)cc12)N1CCCC1
  GIV Gai3 FP: 101

SMILES: COc1ccccc1CN1CCCC1c1c(C)noc1C (configuration not stated)
  GIV Gai3 FP: 112

Screening results (PubChem BioAssay)
